# Screening data deposited in PubChem by National Center for Advancing Translational Sciences (NCATS).
# TDP1 cell CPT – growth inhibition of DT40 Tdp1-/-;hTDP1 cells with camptothecin (screen for TDP1 inhibitors). chicken DT40 Tdp1-/-;hTDP1 cells + 20 nM CPT, ATP luminescence, 48 h. Potency, µM (highest dose often 46.2 µM), for inactives: at the top dose activity change, negative = growth inhibition, actives largely listed as inhibitors. actives 12% (n = 420,000); also: nearly all actives have a fitted effect of over 55% in size
#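 Cell growth measured by CellTiter-Glo luminescence after a minimum 48 h, 37 C compound exposure with 20 nM CPT in Tdp1-knockout DT40 cells stably expressing hTDP1, seeded 400/well; qHTS titration format.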
# FEN1 inhibitor – blocks human flap endonuclease 1; P39748; Recombinant FEN1 flap cleavage, fluorescence, 15 min; Potency, µM (top dose mostly 114 µM), inactives show at the top dose activity change, negative = inhibition, actives largely listed as inhibitors; actives 0.35% (n = 390,000); AID 588795; also: nearly all actives have a fitted effect of over 65% in size
# Target sequence (P39748 whole entry, looked up): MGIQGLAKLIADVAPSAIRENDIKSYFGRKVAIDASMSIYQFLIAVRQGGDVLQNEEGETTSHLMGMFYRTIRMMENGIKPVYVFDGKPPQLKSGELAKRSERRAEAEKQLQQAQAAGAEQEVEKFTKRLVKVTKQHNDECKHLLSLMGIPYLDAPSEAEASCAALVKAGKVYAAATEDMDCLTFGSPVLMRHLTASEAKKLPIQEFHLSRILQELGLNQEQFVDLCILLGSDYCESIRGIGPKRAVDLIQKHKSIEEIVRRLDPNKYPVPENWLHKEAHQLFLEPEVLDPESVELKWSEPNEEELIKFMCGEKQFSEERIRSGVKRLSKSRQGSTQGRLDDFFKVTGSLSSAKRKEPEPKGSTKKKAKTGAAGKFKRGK
#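 Nuclease activity of 10 nM FEN1 was measured after 15 min of room-temperature exposure to titrated compounds, by adding 50 nM flap substrate and reading plates at 0 and 15 min.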
# An asterisk follows results filed as active; ? = inconclusive; · = not tested or not shown; & = joins results of further samples; [ ] = dose if it differs, or a comment. Calls follow the shape of the dose curve; as a rule, active = well fitted curve in the direction sought with a large enough effect; inconclusive = small, poorly fitted or top-dose-only effect, or another doubt; inactive = no such curve, though single readings can be large; an effect the other way counts as inactive or inconclusive. % is scaled to controls: 0 for no effect and ±100 for the full control effect; potency is read from the fitted curve at half-maximal effect.
SMILES,TDP1 cell CPT,FEN1 inhibitor
Cc1ccccc1-c1nnc(-c2ccccc2)o1,?,0.3%
C[C@@H]1COC(=O)[C@H](CC(=O)OC(C)(C)C)C/C=C\C[C@@H](CC(=O)N(CCO)Cc2ccccc2)C(=O)N1,?,14.8%
COc1ccc2ccccc2c1CNC(=O)CC1C(=O)NCCN1CC(C)C (stereo not given),?,5.0%
CSc1ccc(COC(=O)CCS(=O)(=O)c2ccc(C)cc2)cc1,-5.3%,2.7%
COc1ccc(Cn2c(=S)[nH]c3cc(C(=O)N4CCCCC4)ccc3c2=O)cc1,?,-0.8%
CC(C)OP(=O)(OC(C)C)C(NC(=O)c1ccccc1Br)C(N)=O (stereo not given),20.8%,17.0%
Cc1[nH]c2ccccc2c1-c1nc2ccccc2[nH]c1=O,0.7%,-11.0%
CC(=O)c1cccc(NC(=O)Cn2ccn3nc(-c4ccccc4)cc3c2=O)c1,7.1%,0.2%
COC(=O)COc1ccc2cc(-c3ccccc3)c(=O)oc2c1,-15.3%,-5.8%
CCOC(=O)C1(CCCc2ccccc2)CCN(Cc2ccn[nH]2)CC1,?,8.8%
COc1ccc(NC(=O)COc2cccc(C(F)(F)F)c2)cn1,-3.6%,-3.0%
C/C(N)=C(/C#N)C(=O)COC(=O)c1cccc(O)c1,-21.7%,-1.3%
CCN(CC)Cc1c(CC(C)C)oc(C)c1C(=O)O,-13.5%,11.3%
Cc1ccc(S(=O)(=O)N(Cc2ccc(C(F)(F)F)cc2)C(=O)N2CCN(C)CC2)cc1,-0.3%,-2.7%
Fc1cccc(CN2CCSCC2)c1,47.8%[activator],-3.7%
CN(C)S(=O)(=O)c1ccc(C(=O)Nc2ccc(CCC(=O)N3CCCC3)cc2)cc1,?,1.6%
COc1ccc(-c2nnnn2C(C)C)cc1S(=O)(=O)Nc1ccccc1,-23.4%,2.4%
CC1CCCN(c2sc(S(C)(=O)=O)nc2S(=O)(=O)c2ccc(Cl)cc2)C1 (stereo not given),?,-15.2%
Cc1cccc(OCC(=O)Nc2ccccc2F)c1,-10.9%,3.3%
COc1ccccc1-c1nn(-c2ccccc2)cc1C(=O)NC1CC1,3.0%,-9.0%
COC1=CC(=Cc2c(N)n3nc(CC(=O)N4CCOCC4)sc3nc2=O)C=C(OC)C1=O,4.5%,-19.5%
COc1ccc(-c2nnc(SCC(=O)Nc3cc(C)on3)o2)cc1,?,-9.8%
CCCn1nnc(NC(=O)c2ccc(F)cc2)n1,-9.4%,1.8%
Cc1nc(=O)c(-c2ccccc2)c(C)n1-c1cccc(C(=O)O)c1,2.0%,9.7%
CC(=O)Nc1ccc(S(=O)(=O)NCC(=O)OC(C)c2ccccc2Cl)cc1 (stereo not given),-26.4%,10.0%
# Remaining list, next part.
SMILES,TDP1 cell CPT,FEN1 inhibitor
CCCCN(C)CCNC(=O)Cn1ncc2c([nH]c3ccccc32)c1=O,0.7%,46.5%[activator]
O=c1c(-c2ccccc2)c(O)cc(-c2ccncc2)n1-c1ccc(Cl)cc1,-9.7%,-1.2%
COc1ccc(-n2nc3cc(N)c(Br)cc3n2)cc1,-1.8%,10.1%
Cc1nn(Cc2ccc(Cl)cc2)c(C)c1NC(=O)c1c(-c2ccccc2)noc1C,16.4µM*,5.7%
O=C(CCNC(=O)c1ccccc1Cl)OCC(=O)c1ccccc1,-6.3%,-14.5%
CCCCC(=O)Oc1c(S(=O)(=O)c2ccccc2)c(C)nn1C(C)(C)C,16.6%,-9.3%
CCOC(=O)c1cc(-c2ccc(F)cc2)n(CCC(=O)NC2CCN(Cc3ccccc3)CC2)c1C,16.4µM*,-28.0%
CCOC(=O)c1c(C)[nH]c(C(=O)COC(=O)COc2ccccc2C=O)c1C,?,2.6%
COc1nc2ccccc2c(=O)n1OCC(C)C,-14.9%,-10.4%
CON(C)C(=O)CC1(CN(Cc2ccccc2)C(=O)OC(C)(C)C)CCCCC1,18.4µM*,-23.7%
O=C(C1=C(O)C(=O)N(CC2CCCO2)C1c1ccccc1)c1ccco1 (stereo not given),1.2%,-0.2%
COc1ccc(OC)c(Nc2ncnc3sc(-c4ccccc4)cc23)c1,?,-15.6%
C=CCn1c(=O)c2ccccc2n2c(SCC(=O)Nc3cc(C)on3)nnc12,?,1.7%
CC(C)Oc1cccc(C(=O)N/N=C/c2coc3ccccc3c2=O)c1,-19.2%,15.2%
CCOC(=O)C1=C(COC(=O)CCc2ccc(F)cc2)NC(=O)NC1C (stereo not given),-4.0%,0.3%
Cn1c(=O)c(=O)n(C)c2cc(NC(=O)c3cccc(F)c3)c(Cl)cc21,6.4%,-17.2%
O=C(Cn1cc(C(=O)C2CC2)c2ccccc21)NCC1CCCO1 (stereo not given),-5.6%,-0.1%
Cn1cc(/C=N/n2cnc3sc4c(c3c2=O)CCCC4)c2ccccc21,13µM*,-13.2%
CCOC(=O)c1c(S(=O)(=O)Nc2cccc(-c3ccno3)c2)c(C)n(C)c1C,0.6%,-19.9%
CN(c1ccc(F)cc1)S(=O)(=O)c1ccc(Cl)c(C(=O)OCC(=O)NC2CC2)c1,-0.6%,0.1%
Cn1c(CC(=O)Nc2ccc(Cl)cc2)nnc1SCC(=O)N1CCOCC1,15.2%,10.0%
OCc1nc2ccccc2n1CCc1ccccc1,-0.8%,16.2%
CN(Cc1ccccc1)C(=O)COc1cccnc1[N+](=O)[O-],-4.4%,-7.5%
OC(COCc1ccc2c(c1)OCO2)CN1CCCCC1 (stereo not given),4.8%,7.8%
CC(C)c1ccc(-c2nnn(CC(=O)N3CCCCC3)n2)cc1,-6.7%,22.9%

# Part of the list above, as labelled records:
O=C(Cn1cc(C(=O)C2CC2)c2ccccc21)NCC1CCCO1 (stereo not given)
  TDP1 cell CPT: -5.6%
  FEN1 inhibitor: -0.1%
Cn1cc(/C=N/n2cnc3sc4c(c3c2=O)CCCC4)c2ccccc21
  TDP1 cell CPT: 13µM*
  FEN1 inhibitor: -13.2%

# Carrying on.
SMILES,TDP1 cell CPT,FEN1 inhibitor
Cc1ccc(C(=O)N/C(=C\C=C\c2ccccc2)C(=O)NCc2ccco2)cc1,-6.5%,-6.9%
CCOc1ccc(C(=O)NCC(=O)N2CC=C(c3ccccc3)CC2)cc1OCC,-3.6%,-8.6%
CCOc1ccc(C2C(C(=O)Nc3ccc(F)cc3)=C(C)Nc3nc(CCCO)nn32)cc1 (stereo not given),7.5%,-5.7%
O=C(c1ccco1)N1N=C(c2cccs2)CC1c1ccco1 (stereo not given),1.4%,4.0%
Cc1nc2nncn2c(Nc2ccc(F)cc2)c1C,16.4µM*,1.3%
Cc1nn(C)cc1C(=O)Nc1ccccc1Br,22.0%,-1.6%
CN(C)c1ccc(C(C(=O)NCC2CCCO2)N(C(=O)c2snc(C(N)=O)c2N)c2ccc3c(c2)OCO3)cc1 (stereo not given),0.1%,-10.9%
CCc1cccc(C)c1NC(=O)C1CCCN(S(=O)(=O)c2cccc3nsnc23)C1 (stereo not given),-3.8%,10.1%
COc1cc2c3c(c1OC)C1(C=CC(=O)C=C1)CC3N(C(=O)CCC(=O)O)CC2 (stereo not given),?,-0.4%
CC(C)(C)C(=O)Cn1c(=O)n(-c2ccccc2)c(=O)c2c3c(sc21)CCC3,14.6µM*,-14.4%
Cc1cc(-c2c(C)n([O-])c(C)c(C)[n+]2=O)ccc1F,-0.7%,-3.8%
CCOC(=O)c1cccc(NC(=O)CCCn2nc(C)c3c(C)n(-c4ccccc4)nc3c2=O)c1,?,-0.7%
CCOC(=O)C1(Cc2ccccc2C)CCCN(C(=O)CCc2c(C)noc2C)C1 (stereo not given),?,5.2%
CNC(=O)c1ccsc1NC(=O)c1ccccc1,-10.2%,5.6%
CCCc1nc2nc(C)c(NS(=O)(=O)c3ccc(F)cc3)c(=O)n2[nH]1,-11.6%&3.9%,0.5%&-4.7%
N/C(=N\OC(=O)Cc1ccc(-c2ccccc2)cc1)c1cccnc1,-6.0%,-20.7%
Cc1cc(-c2ccc(S(=O)(=O)NCc3ccc(F)cc3)cc2)on1,?,6.4%
O=C(CSc1nc(-c2ccccc2)cs1)NCc1ccco1,-11.4%,1.3%
Cc1cc(N2CCN(C)CC2)nc2ccc(NC(=O)Nc3cccc(Cl)c3)cc12,8.2µM*,-11.9%
O=c1cc(N2CCc3ccccc3C2)[nH]c(=O)n1-c1ccc(Br)cc1,-1.5%,0.4%
O=c1c2ccccc2nc(SCc2cn3ccsc3n2)n1-c1ccc(F)cc1,?,-13.5%
O=C(NC1CCN(C(=O)N2c3ccccc3Sc3ccccc32)CC1)c1ccco1,?,-2.7%
Cc1ccccc1N1C(=O)CN(Cc2sccc2C)C1=S,2.0%,6.1%
COc1cccc(NC(=O)CN2C(=O)CC(c3ccco3)Sc3ccccc32)c1 (stereo not given),·,0.6%
CC(C)(Oc1ccc(Cl)cc1)C(=O)NCC1CCCO1 (stereo not given),1.8%,5.0%
# (more compounds)
SMILES,TDP1 cell CPT,FEN1 inhibitor
Cc1ccc(S(C)(=O)=O)cc1C(=O)N1CC(C(N)=O)Oc2ccccc21 (stereo not given),-0.9%,5.8%
COc1cc(Cl)c(C)cc1NC(=O)NC1COc2ccccc2C1 (stereo not given),-17.0%,-24.1%
CCCN(CC1CC1)C(=O)COC(=O)c1[nH]c(C)c(C(=O)OCC)c1C,?,-13.9%
Cc1cc(N2CCCC2)nc(-c2ccccc2O)n1,-23.4%,6.6%
Cc1ccc(C2Oc3ccccc3C3=C2C(c2cccs2)n2ncnc2N3)cc1 (stereo not given),?,-14.1%
OCC1CCCN(Cc2cn(Cc3ccccc3)nc2-c2cc3ccccc3o2)C1 (stereo not given),-27.3%,2.9%
COCCn1c(COc2cccc(OC)c2)nnc1SCC(=O)NC1CCCCC1,-21.2%,13.4%
Cc1ccc2nc(SC(C)C(=O)NCc3ccc4c(c3)OCO4)[nH]c2c1 (stereo not given),-10.7%,1.9%
CCOC(=O)N/N=C\c1ccc([N+](=O)[O-])s1,16.4µM*,-1.1%
CSCC[C@H](NC(=O)[C@H](Cc1ccccc1)n1c(=O)[nH]c2ccccc2c1=O)C(=O)N1CCC[C@@H]1C(=O)O,-1.2%,-2.9%
COc1ccc(NC(=O)[C@@H]2CCCN2C(=O)c2cccs2)cc1S(=O)(=O)N1CCCCC1,-0.9%,6.4%
CN1CCC(N(C)C(=S)Nc2ccc(F)cc2)CC1,-2.1%,19.9%
CN(C)S(=O)(=O)c1cccc(NC(=O)CN2C(=O)NC(Cc3c[nH]c4ccccc34)C2=O)c1 (stereo not given),?,4.2%
CC(C(=O)Nc1ccc(Cl)cc1)N(C)Cc1cccs1 (stereo not given),-20.3%,-5.1%
NS(=O)(=O)c1ccc(N2CCOCC2)c(C(=O)NCc2cccs2)c1,12.7%,1.5%
CC(=O)Nc1nc(C)c(-c2nc3ccc([N+](=O)[O-])cc3[nH]2)s1,-21.5%,-25.9%
COC(=O)C(CCSC)NC(=O)c1cn(-c2ccc(OC)cc2)c(=O)c2ccccc12 (stereo not given),-4.3%,16.7%

# Copied from the list:
# CN(C)S(=O)(=O)c1cccc(NC(=O)CN2C(=O)NC(Cc3c[nH]c4ccccc34)C2=O)c1 (stereo not given) in FEN1 inhibitor = 4.2%
# Cc1ccc2nc(SC(C)C(=O)NCc3ccc4c(c3)OCO4)[nH]c2c1 (stereo not given) in TDP1 cell CPT = -10.7%
# COCCn1c(COc2cccc(OC)c2)nnc1SCC(=O)NC1CCCCC1 in FEN1 inhibitor = 13.4%
# COc1cc(Cl)c(C)cc1NC(=O)NC1COc2ccccc2C1 (stereo not given) in FEN1 inhibitor = -24.1%
# Cc1ccc(C2Oc3ccccc3C3=C2C(c2cccs2)n2ncnc2N3)cc1 (stereo not given) in FEN1 inhibitor = -14.1%
# CC(C(=O)Nc1ccc(Cl)cc1)N(C)Cc1cccs1 (stereo not given) in TDP1 cell CPT = -20.3%
# CN1CCC(N(C)C(=S)Nc2ccc(F)cc2)CC1 in FEN1 inhibitor = 19.9%

# Grouped by structure, those above with a furan ring, fused or not.
SMILES,TDP1 cell CPT,FEN1 inhibitor
CCN(CC)Cc1c(CC(C)C)oc(C)c1C(=O)O,-13.5%,11.3%
O=C(C1=C(O)C(=O)N(CC2CCCO2)C1c1ccccc1)c1ccco1 (stereo not given),1.2%,-0.2%
Cc1ccc(C(=O)N/C(=C\C=C\c2ccccc2)C(=O)NCc2ccco2)cc1,-6.5%,-6.9%
O=C(c1ccco1)N1N=C(c2cccs2)CC1c1ccco1 (stereo not given),1.4%,4.0%
O=C(CSc1nc(-c2ccccc2)cs1)NCc1ccco1,-11.4%,1.3%
O=C(NC1CCN(C(=O)N2c3ccccc3Sc3ccccc32)CC1)c1ccco1,?,-2.7%
COc1cccc(NC(=O)CN2C(=O)CC(c3ccco3)Sc3ccccc32)c1 (stereo not given),·,0.6%
OCC1CCCN(Cc2cn(Cc3ccccc3)nc2-c2cc3ccccc3o2)C1 (stereo not given),-27.3%,2.9%

# This is a subset, and most or all hits are left out here.
